Vaccinia Venus: qHTS for Stage-Specific Inhibitors of Vaccinia Orthopoxvirus: Venus Reporter Primary qHTS; Potency, µM (titrated, usually from 36.5 µM), inactives show at the top dose activity change, negative = inhibition, actives largely listed as inhibitors; hit rate 0.46% among 330,000; Vaccinia virus Venus reporter expression, fluorescence; active means well fitted inhibition curve with a large enough effect; inconclusive means small, poorly fitted or top-dose-only effect; inactive means no such curve, though single readings can be large or run the other way; tested in A549 cells; also: nearly all actives have a fitted effect of over 30% in size; inactives centre near -10
VACV mCherry inh: qHTS for Stage-Specific Inhibitors of Vaccinia Orthopoxvirus: mCherry Reporter Primary qHTS; Vaccinia virus mCherry reporter infection, fluorescence; about a quarter of the inactives have no number; Potency, µM (doses to about 36.5 µM), for the others: top-dose activity change, negative = inhibition, most hits filed as inhibitors; hit rate 0.63% among 310,000; AID 720579, 2013; active = well fitted inhibition curve with a large enough effect; inconclusive = small, poorly fitted or top-dose-only effect; inactive = no such curve, though single readings can be large or run the other way; tested in A549 cells; also: nearly all actives have a fitted effect of over 35% in size; inactives centre near -10
Starred values were filed as active, the others as inactive; i = inactive; ? = inconclusive; / = no result given; [ ] = another dose, or the depositor's remark. % is scaled to controls: 0 for no effect and ±100 for the full control effect; potency is read from the fitted curve at half-maximal effect.

SMILES	Vaccinia Venus	VACV mCherry inh
CCOc1ccccc1NC(=O)c1c(NCc2cccs2)sc2c1CCCCC2	-9%	-3%
CNC(=S)Nc1ccc([N+](=O)[O-])cc1	-11%	?
CCCNC(=O)Nc1cc(C)on1	-6%	-9%
CCN(CC)S(=O)(=O)c1ccc(Cl)c(NC(=O)CSc2nnc(-c3cccs3)o2)c1	-14%	-10%
Cc1nn(CC(=O)Nc2cc(F)ccc2F)c(=O)c2cccn12	-11%	-11%
COc1ccc(CNC(=O)Cc2c(C)c3cc4c(C)coc4cc3oc2=O)cc1OC	-30%	-28%
CC(=O)Nc1ccc(N/C(=N\S(=O)(=O)c2ccccc2)c2ccccc2)cc1	-11%	i
O=C(Nn1c(C2CCC2)nc2ccccc2c1=O)c1cccs1	-14%	i
CC(C)C12CN3CC(C(C)C)(CN(C1)C3c1ccc(OCc3ccccc3)cc1)C2=O (configuration not stated)	-9%	1%
C/C(=N\Nc1nc2ccccc2[nH]1)c1cccs1	-23%	-25%
Cc1noc(C)c1S(=O)(=O)N(C)CC(=O)Nc1ccc(F)cc1	-9%	i
O=C(O)c1ccc(CN2C[C@@H](CO)O[C@@H](n3cnc4c(Nc5ccccc5)ncnc43)C2)cc1	7%	33%[activator]
Cc1cc(OC(=O)N(C)C)n(-c2ccccc2)n1	9%	-5%
O=C(c1ccco1)N1CCN(C(=O)c2ccc(CS(=O)c3ccc(Br)cc3)o2)CC1 (configuration not stated)	-17%	?
Cc1cc(C)nc(NNS(=O)(=O)c2c(F)cc(F)cc2Br)n1	-1%	-19%
COc1ccc(NC(=S)Nc2ncccc2C)c(OC)c1	?	?
CCOc1ccc(NC(=O)COC(=O)c2c[nH]c3ccccc23)cc1	-2%	i
CCOc1ccccc1CNC(=O)C1CCCN(c2nn3c(=O)cc(C)nc3s2)C1 (configuration not stated)	-12%	-20%
CC1(C)Cc2nc(-c3ccccc3)n3cnnc3c2CO1	-19%	/
CN(C)CC(=O)N1c2ccccc2CCc2ccc(NC(=O)c3ccc(N)cc3)cc21	-5%	/
COC(=O)C[C@H]1C[C@@H]2c3cc(NS(=O)(=O)c4cccc(OC)c4)ccc3O[C@@H]2[C@@H](CO)O1	-12%	-24%
COc1ccc(C(=O)NNc2ncnc3c2cnn3-c2ccc(C)c(Cl)c2)cc1	0%	-11%
CC(CC(=O)Nc1ccc2c(c1)OCCO2)c1ccccc1 (configuration not stated)	-6%	-15%
Cc1ccc(S(=O)(=O)N2CCCCC2)cc1NC(=O)COC(=O)c1cccc(O)c1	-7%	-5%
O=C(NC1CCCCC1)c1cc(N2C(=O)CCC2=O)ccc1Cl	-17%	-3%
O=[N+]([O-])c1ccccc1CNCCCCO	2%	-2%
CCOc1ccc(C(=O)Nc2c(C(=O)Nc3ccccc3OC)oc3ccccc23)cc1OCC	-17%	-19%
CCCCOc1ccccc1P(=O)(O)CP(=O)(c1ccccc1)c1ccccc1	-15%	-8%
CNc1cncc(-c2ccc(O)cc2)n1	-5%	i
Cc1nn(C)c(C)c1CN(C)C(=O)c1cnn2c1NC(c1ccccc1)CC2C(F)(F)F (configuration not stated)	-11%	-1%
Cc1cccc(C(O)c2ncc(-c3ccc(C(F)(F)F)cc3)[nH]2)c1C (configuration not stated)	-21%	-13%
Cc1cc(C)cc(N(CCC#N)C(=O)CN2C(=O)NC3(CCCC3)C2=O)c1	-10%	-22%
O=C(Nc1ccc(-n2nncc2-c2ccccc2)cc1)c1ccccc1	-16%	-8%
CCOc1ccc(NC(=O)COc2ccc(C(=O)N3CCC(C(N)=O)CC3)cc2OC)cc1	-23%	-7%
N#CCCN(C(=O)COC(=O)CNC(=O)C12CC3CC(CC(C3)C1)C2)c1ccccc1	-15%	-1%
COc1ccc(-n2cc(CN3CCC(OC)CC3)c(-c3cccc(F)c3)n2)cc1	-7%	?
Fc1cccc(NC(=S)NCc2ccccc2Cl)c1	-24%	-4%
Cc1ccc(/C=C/C(=O)O)cc1S(=O)(=O)NCCCO	-14%	/
C/C(=C/C(=O)N1CCc2ccccc21)C(=O)O	-3%	-12%
Cc1ccc(C(=O)CNc2cccc(Cl)c2)cc1	-5%	-15%
COc1ccc(-c2ccc(C(=O)NCC3Cc4cccc(-c5nc(C)cnc5C)c4O3)o2)cc1 (configuration not stated)	5%	-13%
Clc1ccc(/C=N/NC2=Nc3cccc4cccc2c34)cc1	-6%	-17%
COc1cccc2cc(C(=O)OCC(=O)NCc3ccc4c(c3)OCO4)c(=O)oc12	0%[7.34 µM]	33%[activator][7.34 µM]
COc1ccc(/C=C/C(=O)c2ccc(Cl)cc2)c(OC)c1	-2%	-17%
Cc1ccc(C)c(OC(=O)CSc2nnc(CNC(=O)c3ccccc3)o2)c1	0%	-5%
COc1ccc([N+](=O)[O-])cc1N(CC(=O)O)S(C)(=O)=O	-13%	3%
CCOc1ccccc1C1CC(=O)NC2=C1C(=O)CC(C)(C)C2 (configuration not stated)	-15%	-14%
CCC(C(=O)NC(C)(C)C)n1c(-c2cccc(NC(C)=O)c2)nc2ccccc21 (configuration not stated)	-6%	-5%

Exported with two lines to a compound: entries from further up.
Each structure is followed by: Vaccinia Venus | VACV mCherry inh
COc1ccc(-c2ccc(C(=O)NCC3Cc4cccc(-c5nc(C)cnc5C)c4O3)o2)cc1 (configuration not stated)
  5% | -13%
Clc1ccc(/C=N/NC2=Nc3cccc4cccc2c34)cc1
  -6% | -17%
COc1cccc2cc(C(=O)OCC(=O)NCc3ccc4c(c3)OCO4)c(=O)oc12
  0%[7.34 µM] | 33%[activator][7.34 µM]

New compounds follow
SMILES	Vaccinia Venus	VACV mCherry inh
O=c1[nH]c(=O)n(C2CCCO2)cc1Br (configuration not stated)	27%	-3%
Cc1cc2cc(CN(CC3CCCO3)C(=S)NCc3ccco3)c(=O)[nH]c2cc1C (configuration not stated)	-16%	-6%
CCN(CC)CCOC(=O)c1cccc(OC)c1	-14%	/
CC1(c2cccc(Br)c2)NC(=O)N(CC(=O)c2ccc3c(c2)OCO3)C1=O (configuration not stated)	-12%	-2%
O=C1CC(N2CCN(c3ccc(S(=O)(=O)N4CCCC4)cc3)CC2)C(=O)N1c1ccc(F)cc1 (configuration not stated)	-17%	/
O=C(COc1ccc(Cl)cc1Cl)NCC(=O)N/N=C/c1c[nH]c2ccccc12	-21%	i
O=C(c1cccc(-n2cccc2)c1)N1CCN(S(=O)(=O)c2ccccc2Br)CC1	-17%	?
CC1CCN(Cc2c(C(=O)N/N=C/c3ccc(C(F)(F)F)cc3)nnn2-c2nonc2N)CC1	-17%	i
CC(C)CCNC(=O)CNC(=S)N(CCCN1CCOCC1)Cc1cccs1	-13%	-14%
COc1ccccc1N1C(C)=CC(=C(C#N)c2nc3ccccc3s2)C=C1C	?	-8%
CC1CCN(c2nnc(-n3cccc3CNc3cccc(F)c3)s2)CC1	-11%	-15%
Cc1ccc(C(=O)C2CC2)cc1C	-14%	-10%
Cc1cc(C)n2c(nc3ccccc32)c1C(=O)NN	1%	-2%
Cc1c(Cl)cccc1NC(=S)Nc1ccc2[nH]c(=O)[nH]c2c1	-4%	i
COc1cc([C@@H]2c3cc4c(cc3[C@@H](OC)[C@H]3COC(=O)[C@H]23)OCO4)cc(OC)c1O	-26%	-30%
CSCCC(NS(=O)(=O)c1cc(C(=O)O)ccc1Cl)C(=O)O (configuration not stated)	-11%	-1%
Cc1nn(C)c(C)c1/C=C/C(=O)O	-10%	-18%
Cc1cc(=O)c(C(=O)NCCc2ccccn2)c2n1-c1ccccc1SC(c1cccs1)C2 (configuration not stated)	14%	-1%
CC(=O)Nc1ccccc1C(=O)C(=O)Nc1ccccc1	-5%	-10%
OCC1OC(c2ccc(O)cc2O)C(O)C1O (configuration not stated)	2%	-5%
COc1ccc(Br)cc1C(=O)NC(=S)Nc1c(C)n(C)n(-c2ccccc2)c1=O	-9%	-19%
COc1cc(NC(=O)Cc2cccs2)c(C(=O)O)cc1OC	-4%	-2%
COc1ccc(CN2C(=O)N(c3cccc(C)c3)C(=O)C2CC(=O)Nc2ccc(F)cc2)cc1OC (configuration not stated)	-2%	-3%
CC(=O)Nc1cccc(NC(=O)C2CCCN2C(=O)Nc2cccc(F)c2)c1 (configuration not stated)	-1%	-3%
CCc1ccc(NC(=O)Cn2nnc(C(=O)Nc3cc(C)ccc3OC)c2N)cc1	-25%	-9%
Cc1cccc(N(Cc2ccccc2)C(=O)c2ccccc2S(C)(=O)=O)c1	-20%	-4%
CC1CCN(C(=O)c2ccc3ccccc3c2)CC1	-17%	i
O=C(OCC(O)C(O)COC(=O)c1ccccc1)c1ccccc1 (configuration not stated)	-5%	/
O=C(NCc1ccco1)c1cccc(-c2ccc3nncn3c2)c1	-6%	-11%
CC(OC(=O)CNC(=O)c1ccccc1)C(=O)Nc1ccc(S(=O)(=O)N2CCOCC2)cc1 (configuration not stated)	-9%	-16%
COC(=O)[C@H](CC(C)C)NC(=O)/C=C/[C@H]1O[C@@H](n2ccc(=O)[nH]c2=O)[C@H](O)[C@@H]1O	5%	25%
O=C(NCc1ccccc1)c1cc(C2CCCCN2C(=O)c2ccc(Cl)cc2)on1 (configuration not stated)	0%	1%
N/C(=N\OC(=O)c1ccc(Cl)cc1)c1cccnc1	-1%	-8%
O=C(NCC(=O)N1CCN(S(=O)(=O)/C=C/c2ccccc2)CC1)c1ccccc1F	-12%	-20%
CCCc1nnc(SCC(=O)Nc2ccc(NC(C)=O)cc2)n1-n1cccc1	-9%	-15%
O=[N+]([O-])c1ccc(S(=O)(=O)NN=Cc2ccc3c(c2)OCO3)cc1	-6%	?
CCOc1cccc(OCCCNCCCOC)c1	-16%	-14%[1.46 µM]
COc1cc(CN2C(=O)C(Cc3ccccc3)ON=C2c2ncccc2C)cc(OC)c1 (configuration not stated)	3%	i
CC(=O)N1CC2(NC(=O)c3ccccc3N2)c2ccccc21 (configuration not stated)	-2%	i
O=C1C2C3C=CC(C3)C2C(=O)N1c1ccncc1 (configuration not stated)	-4%	i
COc1ccc(-c2ccc3c(c2)CN(C(=O)NC2CCCCC2)Cc2cnnn2-3)cc1	-15%	-16%
COc1ccc(-c2c(-c3ccc(C#N)cc3)oc(=O)c3cc(OC)c(OC)cc23)cc1	-19%	i
COc1cc(OC)cc(C(=O)NNC(=O)c2ccc(-n3cncn3)c([N+](=O)[O-])c2)c1	0%	-14%
Cc1cccc(NC(=O)CC23CC4CC(C2)CC(n2nnc(C)n2)(C4)C3)c1	0%	i
COc1ccc(N2CCN(CC(=O)NC(=O)NCc3ccco3)CC2)cc1	-3%	-14%
COC(=O)C1CCN(S(=O)(=O)c2ccc(N3CCCCS3(=O)=O)cc2)CC1	-13%	-8%
C[C@]12CCC3C(CC[C@H]4C[C@H](O)CC[C@]34C)C1[C@@H](O)C[C@@H]2O (some centres not stated)	-1%	-16%
Cc1cccc(C(=O)N=c2c(C#N)cc3c(=O)n4cccc(C)c4nc3n2Cc2ccco2)c1	-12%	-11%

Exported with two lines to a compound: part of the list above.
Second line of a record – Vaccinia Venus	VACV mCherry inh
- COC(=O)C1CCN(S(=O)(=O)c2ccc(N3CCCCS3(=O)=O)cc2)CC1
    -13%	-8%
- C[C@]12CCC3C(CC[C@H]4C[C@H](O)CC[C@]34C)C1[C@@H](O)C[C@@H]2O (some centres not stated)
    -1%	-16%
- COc1ccc(N2CCN(CC(=O)NC(=O)NCc3ccco3)CC2)cc1
    -3%	-14%
- COc1cc(OC)cc(C(=O)NNC(=O)c2ccc(-n3cncn3)c([N+](=O)[O-])c2)c1
    0%	-14%
- COc1ccc(-c2c(-c3ccc(C#N)cc3)oc(=O)c3cc(OC)c(OC)cc23)cc1
    -19%	i

More entries.
SMILES	Vaccinia Venus	VACV mCherry inh
COC(=O)c1ccccc1NC(=O)c1ccc(COc2ccccc2Cl)o1	-9%	-5%
C[C@@H]1C2C[C@@]34COC(=O)C3=CC=C[C@H]4[C@@]13C[C@H](c1ccoc1)O[C@@H]3O2	-5%	-2%
O=C(COC(=O)/C=C/c1ccc([N+](=O)[O-])cc1)NCC1CCCO1 (configuration not stated)	-15%	-6%
COC(=O)C1=C(c2ccc3ccccc3c2)C[C@@H]2CC[C@H]1N2C(=O)N1CCCC1	?	?
CCCOc1cccc(C(=O)Nc2cccc(NC(=O)c3ccc(Cl)cc3Cl)c2)c1	-2%	-4%
O=P(Nc1cccnc1)(Oc1ccccc1Cl)Oc1ccccc1Cl	-13%	-10%
CCC(=O)Nc1cc2c(C)cc(=O)oc2cc1C	-11%	-12%
CCCCOC(=O)/C=C\C(=O)NC(N)=O	-4%	?
COc1ccc(-n2nc(C(=O)NCC(=O)N3CCCCC3)c3ccccc3c2=O)cc1	2%	6%
COC(=O)[C@H](CC(C)C)NC(=O)NCCC1=CCCCC1	-8%	i
COC(=O)CCN1CCC2CC1c1cc(N3CCCCC3)ccc12 (configuration not stated)	-9%	-10%
CCc1nn(CCCC(=O)N(C)Cc2ccccc2)c(=O)c2cc3occc3n12	-1%	-6%
O=C(c1ccncc1)c1nccn1-c1ccccn1	-12%	i
COc1cccc(NC(=O)c2cnc(SCC(=O)NCc3ccc4c(c3)OCO4)n(C)c2=O)c1	-10%	-10%

Source: PubChem
